Screens (PubChem BioAssay)
AID504770: growth inhibitors of E. coli YBA685 in a screen for V. cholerae RctB (chromosome II replication) inhibitors; z-score (no concentration beside the values); E. coli YBA685 rctB-dependent plasmid, OD600 growth, 3 h; stronger effect = lower value; 130,000 compounds, 0.27% hits; AID 504770;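 active = z-score under -2 on both plates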;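 also: wells of about 30 µL received 100 nL stock; score is relative to mean and SD of the test wells; the first replicate is given; strong numbers were not always called active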
Ba CapD inh: blocks the Bacillus anthracis CapD enzyme. purified CapD enzyme, fluorescence intensity read-out; stronger effect = lower value; some hits fall short of the stated cut. z-score (test concentration not listed). 140,000 compounds, 0.23% hits;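 active = z-score under -4 in either of two replicates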;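 also: stock transfer was 100 nL into about 40 µL; score is relative to mean and spread of the plate; one replicate is shown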
The depositor's hits bear a star; i = inactive; · = no result given.

SMILES | AID504770 | Ba CapD inh
COc1ccc(OC)c(C2C(C(=O)c3ccccc3)N3C=Cc4ccccc4C3C2(C#N)C#N)c1 (centres undefined) | · | 0.14
Cc1nn(C2CCS(=O)(=O)C2)c(Cl)c1CNCCCn1ccnc1 (centres undefined) | -0.6 | ·
FC(F)(F)c1cc2nc(-c3ccccc3)c(-c3ccccc3)nc2cc1Cl | · | 0.035
COc1cc(C2Sc3ccccc3NC3=C2C(=O)c2ccccc23)ccc1OC(C)=O (centres undefined) | 1.8 | -0.63
COC(=O)C1CCC(NC(C)=O)C(C(=O)OC)C1 (centres undefined) | · | -0.52
C=CCNC(=O)Nc1c[nH]c2ccc(F)cc2c1=O | 0.15 | 90
CCOc1ccc(CC2c3cc(OCC)c(OCC)cc3CCN2C(=O)COC(=O)c2cnccn2)cc1OCC (centres undefined) | -0.9 | ·
Cc1ccc(NC(=O)CN(C)CC(=O)Nc2ccccc2)cc1 | 0.95 | ·
CCC(C)NC(=S)NC1CCCCC1 (centres undefined) | 0.95 | 0.09
COc1ccc(/C=C2/SC(=S)N(CC(=O)O)C2=O)c(OC)c1OC | · | -1.9
COc1ccc(NC(=O)NC2CC2)c(OC)c1 | -1.1 | -0.11
CC(=O)Nc1cc2cc(NC(=O)c3ccc([N+](=O)[O-])cc3)ccc2oc1=O | · | -0.73

Quoted at random: 3 records from the list
SMILES | AID504770 | Ba CapD inh
COc1ccc(/C=C2/SC(=S)N(CC(=O)O)C2=O)c(OC)c1OC | · | -1.9
Cc1nn(C2CCS(=O)(=O)C2)c(Cl)c1CNCCCn1ccnc1 (centres undefined) | -0.6 | ·
CCOc1ccc(CC2c3cc(OCC)c(OCC)cc3CCN2C(=O)COC(=O)c2cnccn2)cc1OCC (centres undefined) | -0.9 | ·

Going on with the list:
SMILES | AID504770 | Ba CapD inh
O=C(CC1SC(=Nc2ccccc2)N(c2ccccc2)C1=O)Nc1ccccc1 (centres undefined) | · | -0.52
COc1ccc(N2CCN(CCCNCc3c(C(=O)O)n(C)c4ccccc34)CC2)cc1 | -0.5 | -0.1
COc1cc2c(cc1OC)C(CC(=O)O)NCC2 (centres undefined) | 0 | ·
CCCC1CCC2(C)c3c(c4ccccc4n3C)CCN2C1 (centres undefined) | · | 0.41
COc1ccc(OC)c(/C=N/c2oc(-c3ccccc3)c(-c3ccccc3)c2C#N)c1 | · | 0.34
O=C(CCN1C(=O)c2ccccc2S1(=O)=O)N1CCOCC1 | 2.1 | ·
O=c1[nH]c2ccccc2nc1-c1cccs1 | 0.4 | 56
COc1ccccc1C1C=C(Nc2ccc(C)cc2)C(=O)N1c1ccc(C)cc1 (centres undefined) | · | 0.8
CCOC(=O)c1cn(CC(=O)N(Cc2ccccc2)c2ccc(Br)cc2)nn1 | -0.4 | -1.4
Cc1cccc(NC(=O)c2cnn(-c3ccccc3)c2NC(=O)c2ccco2)c1 | 2.3 | 0.42
CC(C)C(NC(=O)c1cc2ccccc2cc1O)C(=O)O (centres undefined) | -0.35 | 0.5
CC1(C)Cc2ccccc2C(NNC(N)=O)=N1 | -0.45 | 0.38
CC(=O)N1CCc2c(sc3c2c(=O)n(-c2ccccc2)c(=O)n3Cc2ccccc2C#N)C1 | -0.45 | 1.1
S=C(Nc1cccc(Cl)c1)NC12CC3CC(CC(C3)C1)C2 | 0.1 | 0.025
CCOc1ccc2c(c1)N(C(=O)/C=C/c1ccc(OC)cc1)C(C)(C)c1ssc(=S)c1-2 | · | -1.7
COc1ccc(CNC(=O)c2cc(=O)[nH]c3ccc(S(=O)(=O)N4CCCC4)cc23)cc1 | 0.85 | 0.3
Cc1ccccc1NC1=NC(=S)N(c2cccc(Cl)c2)C12CCC(C(C)(C)C)CC2 (centres undefined) | · | 0.61
COc1cc(OC)c(NC(=O)c2oc3ccc4c(c3c2C)C(=O)CC2(CCCC2)O4)cc1Cl | -0.9 | -0.6
CC(C)c1ccc(Nc2nc(NCc3ccco3)nc(N3CCOCC3)n2)cc1 | · | -0.85
CNC(=S)N1CCNC(=O)C1CC(=O)Nc1cc(Cl)ccc1C (centres undefined) | -0.45 | 0.09
COc1ccc(NC(=O)Nc2ccc(OC)c(OC)c2)cc1OC | -0.5 | 0.12
COC(=O)c1cc(S(=O)(=O)N(C)C2CCCCC2)oc1C | -0.95 | 1.6
O=C(CN1C(=O)CCCc2ccccc21)N1CCCCC1 | -0.3 | -0.32
Nc1cnn(C2CCCCC2)c(=O)c1Cl | -1.2 | 0.1
NS(=O)(=O)c1ccc2nc(NC(=O)c3ccc(Br)s3)sc2c1 | 0.75 | ·
Nc1ccc(-n2ccnc2)cc1 | -0.2 | 0.015
O=C(O)C1CC=CCC1C(=O)NCCc1ccccc1 (centres undefined) | -0.55 | ·
NNC(=O)C(Oc1ccccc1)Oc1ccccc1 | -0.95 | -0.14
Cc1[nH]n(-c2ccccc2)c(=O)c1C(c1ccccc1OC(=O)c1ccc(Cl)cc1)c1c(C)[nH]n(-c2ccccc2)c1=O | · | -0.23
O=C(COc1ccc2c(c1)C(=O)CC1(CCCCC1)O2)NCc1ccccc1 | 0.6 | 11
O=C(c1ccccc1)C1(c2ccccc2)OCCCCO1 | 1.4 | -0.32
CCOC(=O)N1CCN(CC2CCCCC2)CC1 | -1.6 | -0.05
FC(F)(F)c1ccc(NC(=S)NC2CC2)cc1 | 0.05 | ·
O=C(NCCCN1CCCCCC1)C1C2C=CC3(CN(Cc4cccs4)C(=O)C13)O2 (centres undefined) | -0.7 | 0.015
O=C(Cc1ccccc1)Nc1ccc2c(c1)C(=O)OC2 | -0.45 | 0.19
O=C1c2ccccc2C(=O)N1CN(CN1C(=O)c2ccccc2C1=O)C1CC1 | 0.7 | 0.57
CCCCOc1ccc(CSC(=N)N)cc1 | -1.8 | 0.15
CCCCOc1ccc(C(=O)Nc2cc(C)ccn2)cc1 | -0.1 | 0.62
CCN(CC)S(=O)(=O)c1ccc2oc(C(=O)NCCN3CCOCC3)c(C)c2c1 | -0.4 | -0.37
COC(=O)c1ccc2c(=O)n(Cc3ccc4c(c3)OCO4)c(SC)nc2c1 | · | -0.54
COc1cccc(/C=N/c2nc3ccccc3n2C)c1O | 1.1 | ·
CC(C)(C)OC(=O)NC1CCN(C(=O)OCCc2cccc(Cl)c2)C1 (centres undefined) | · | -0.9
O=C(Nc1c2c(nn1-c1ccc(Cl)cc1)CSC2)c1ccc(S(=O)(=O)N2CCCC2)cc1 | · | -0.39
Cc1cc(C)cc(N2Cc3ccccc3C2)c1 | -1.3 | 3.7
COc1ccc(/C(O)=C2/C(=O)C(=O)N(CCCO)C2c2cccc(Br)c2)cc1F (centres undefined) | -0.25 | 0.82
Cc1ccc(C)c(N2N=C(C(=O)OCN3C(=O)c4ccccc4C3=O)CCC2=O)c1 | -0.5 | ·
C=CCn1c(SCC(=O)NCc2ccc3c(c2)OCO3)nc2scc(-c3ccccc3)c2c1=O | · | -0.58
COc1cccc(CN2CCC(NC(=O)c3cc(F)cc(F)c3)C2)c1[N+](=O)[O-] (centres undefined) | · | -0.12

3 entries from above, arranged by molar mass, low to high:
SMILES | AID504770 | Ba CapD inh
COc1cccc(/C=N/c2nc3ccccc3n2C)c1O | 1.1 | ·
COC(=O)c1ccc2c(=O)n(Cc3ccc4c(c3)OCO4)c(SC)nc2c1 | · | -0.54
COc1ccc(/C(O)=C2/C(=O)C(=O)N(CCCO)C2c2cccc(Br)c2)cc1F (centres undefined) | -0.25 | 0.82

Looked up above.
Cc1cc(C)cc(N2Cc3ccccc3C2)c1 in Ba CapD inh reads 3.7
CCCCOc1ccc(C(=O)Nc2cc(C)ccn2)cc1 in Ba CapD inh reads 0.62

Later entries.
SMILES | AID504770 | Ba CapD inh
CN(C(=O)CCc1nc(CN2CCN(S(=O)(=O)c3cccs3)CC2)no1)C1CCCCC1 | -2.5 | 0.71
CC(=O)c1sc2ccccc2c1O | 0.2 | ·
CCOC(=O)c1c(C)n(-c2ccccc2)c2ccc(O)cc12 | · | 0.83
O=C(CCSCc1ccccc1Cl)NC1CCCC1 | -0.4 | ·
Cc1ccc(S(=O)(=O)N(CC(=O)N2CCC(C)CC2)C(=O)N2CCN(C)CC2)cc1 | 0.45 | ·
NC(=O)C1CCN(C(=O)c2ccc3c(=O)n(C4CCCCC4)c(SCC(=O)c4ccccc4)nc3c2)CC1 | · | 0.24
CCCN1C(=O)/C(=C/c2cc(C)n(-c3ccc(Cl)cc3)c2C)NC1=S | 2.5 | -1.8
O=C(Nc1cccc(C(=O)NCCN2CCCC2)c1)C1=CSCCO1 | 0.25 | -0.07
CSc1nc2ccc(NC(=O)c3ccc4snnc4c3)cc2s1 | 0.25 | -0.04
COc1ccc(F)c(/C=N/NC(=O)c2csc(CS(=O)(=O)Cc3ccco3)n2)c1 | · | 6.5
COc1cc(C2NC(=O)c3c(sc4c3CCCC4)N2)ccc1O (centres undefined) | · | -0.42
COC(=O)C1=C(C)NC2=C(C(=O)CCC2)C1c1c[nH]c2ccccc12 (centres undefined) | -1.1 | -0.89
CC12CC(c3ccccc3O1)C(C(=O)Nc1nc(-c3ccccc3)cs1)C(=O)N2 (centres undefined) | 2.2 | 0
CC(C)(C)NS(=O)(=O)c1ccc2oc3ccc(S(=O)(=O)NC(C)(C)C)cc3c2c1 | -0.85 | ·
CN(C)C(=O)c1ccc(-c2nnc(NCc3ccccc3)c3ccccc23)cc1 | · | 0.005
O=C(Cn1c(-c2ccccn2)nc2ccccc21)NCCc1ccccc1 | 1.1 | 13
COC(CN=C(NC#N)SC)OC | · | 0.28
O=S(=O)(c1ccc(=S)[nH]c1)N1CCCCCC1 | 1.6 | ·
CCc1cc2c3c(c(=O)oc2cc1OC(C)C(=O)O)CCCC3 (centres undefined) | · | 43
O=C(CCC1CCCC1)Nc1ccc(-c2cn3cccnc3n2)cc1 | -0.25 | 114
CCOC(=O)C1=C(CSc2nc(C)c(C)c(C)c2C#N)OC(N)=C(C#N)C1c1ccccc1OC (centres undefined) | · | -0.065
Cc1cccc(C)c1N1C(=O)CSCC1=O | -0.2 | 0.21
COc1cccc2c(C)cc(N3CCCCC3)nc12 | -0.7 | 63
CN1C(=O)SC(Nc2ccccc2)C1=O (centres undefined) | 0.6 | ·

The closing four entries of the part above are carried over, then new ones follow:
SMILES | AID504770 | Ba CapD inh
CCOC(=O)C1=C(CSc2nc(C)c(C)c(C)c2C#N)OC(N)=C(C#N)C1c1ccccc1OC (centres undefined) | · | -0.065
Cc1cccc(C)c1N1C(=O)CSCC1=O | -0.2 | 0.21
COc1cccc2c(C)cc(N3CCCCC3)nc12 | -0.7 | 63
CN1C(=O)SC(Nc2ccccc2)C1=O (centres undefined) | 0.6 | ·
CCOC(=O)c1csc(N/N=C2\CCCc3cc(OC)ccc32)n1 | · | -0.53
c1cncc(CNc2ccc(-c3nc4ncccc4o3)cc2)c1 | -0.2 | ·
COc1cc(C2CC(=O)NC(SCC(=O)Nc3ccccc3C)=C2C#N)ccc1O (centres undefined) | · | -0.73
CN1CCN(NC(NC(=O)c2cccnc2)(C(F)(F)F)C(F)(F)F)CC1 | 2.2 | -0.75
CC(=O)Oc1ccccc1C(=O)Nc1ccc(C(N)=O)cc1 | -0.35 | -0.21
CCn1c(SCc2c(C)noc2C)nc2cc(S(=O)(=O)N3CCOCC3)ccc21 | 0.05 | ·
CSc1ncccc1C1=N/C(=C\c2ccc(C(F)(F)F)cc2)C(=O)O1 | 1.4 | 0.25
Cc1ccc(C2=NNC(C(O)C(O)C(O)C(O)CO)S2)cc1 (centres undefined) | -0.55 | ·
CCC(=O)N/C(N)=N\c1nc(C)c2ccccc2n1 | -0.5 | -0.25
CS(=O)(=O)c1ccc(-c2cccc(NC(=O)Cc3cccs3)c2)nn1 | 0.6 | ·
NCc1n[nH]c(=S)n1CCc1ccccc1 | -0.75 | ·
COC(=O)CSc1nc2ccc(C)cc2[nH]1 | -1.5 | ·
O=S(=O)(NCCc1cccs1)c1cccc(F)c1 | · | -0.16
Cc1oc(NC(=O)C(F)(F)F)c(C#N)c1C | 0.05 | ·
Cc1noc(C)c1S(=O)(=O)Nc1ccc(C(=O)N2CCc3ccccc3C2)cc1 | -0.55 | -0.35
N#C/C(C(=O)N1CCCCC1)=C(/S)Nc1ccccc1 | 0.3 | -1.9
Cc1nc2cc(CC(=O)O)ccc2o1 | -0.2 | -0.73
COc1ccccc1N1CCN(CCC(=O)O)CC1 | 2.4 | ·
CC1(C)CC(=O)C2=C(C1)NC(=O)C21C(C#N)=C(N)Oc2ccccc21 (centres undefined) | 2.4 | ·
COc1cccc(CN2CCC(NC(=O)c3ccoc3)C2)c1[N+](=O)[O-] (centres undefined) | · | -0.045
Cc1cccc2cc(C3CC(c4cccs4)=NN3C(=O)CCC(=O)O)c(Cl)nc12 (centres undefined) | · | 22
Cc1ccc(/C=C/C(=O)NCC2CCN(C(=O)/C=C/c3ccc(C)o3)CC2)o1 | -0.55 | -1.6
Cc1nccc2[nH]c(=O)c(C(=O)NCc3ccccc3)cc12 | -0.3 | 1.1
Cc1cc(=O)oc2cc(OCC(O)Cn3cnc4ccccc43)ccc12 (centres undefined) | 0.8 | ·
NC(=O)C1=C(N)SC2C(=O)N(c3ccc4ccccc4c3)C(=O)C2C1c1ccccc1O (centres undefined) | 0.3 | ·
COc1ccc(Cl)cc1N(C(C)C(=O)O)S(C)(=O)=O (centres undefined) | 0.7 | -0.74
COc1cc(C(=O)NNC(=O)c2sc3ccccc3c2Cl)cc(OC)c1OC | · | -0.91
COc1cc(Cl)cc(OC)c1NC(=S)N1CCN2C(=O)c3ccccc3C21c1ccccc1 (centres undefined) | · | -1.2
CC(=O)Nc1ccc(-c2cn3ccsc3n2)cc1 | 0.35 | i
COc1ccc(OC)c(NC(=O)c2sc(=S)n(-c3ccccc3C)c2N)c1 | · | -0.57
Cc1cc(NS(=O)(=O)c2ccc(N3C(=O)c4ccccc4C3=O)cc2)no1 | 1.9 | ·

Only part of the results is shown; the hit share may differ from the screen's.
